# Compound activity deposited in PubChem by several laboratories.
# BJeLR lethal – MLPCN primary cell-based screen for lethality selective to Ras in HRASV12 cells | 0.17% of 300,000 active | inhibition, % (no concentration beside the values) | AID 1554, 2009 | BJeLR (HRASV12) viability, CellTiter-Glo ATP luminescence, 48 h; reference of the scale not given here;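 active = replicate mean above 50%; inconclusive = above 50% but judged a plate artefact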;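 also: 50 nL library stock added to about 25 µL; numbers are from one replicate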
# ugtP null kill – growth inhibition of ugtP-null S. aureus, primary screen, RN4220 ugtP deletion, OD600; 16 h; some inactives read as strong as hits; growth inhibition, % (no concentration beside the values); 0.54% of 330,000 active;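 active = z-score under -3 and OD600 up to 0.15 on both plates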;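 also: plate controls were untreated wells for no effect and antibiotic for full effect; wells of about 80 µL received 100 nL stock; the first replicate is given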
# PrP 5UTR inh – inhibition of PrP 5' UTR reporter expression; cell-based PrP 5' UTR mRNA reporter, plate reader; inhibition, % (test concentration not listed); 0.35% of 340,000 active; AID 488862, 2010;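 active = every replicate at 50% or more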;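 also: 0 = median of the neutral control wells; tested in H4 reporter cells; numbers are from one replicate; inactives centre near -14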
# Mtb hypoxia rep – PubChem AID 1159583 | fluorescence inhibition, % (test concentration not listed) | 0.1% of 300,000 active | M. tuberculosis hypoxia-regulated fluorescent reporter, fluorescence;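 active = 35 to 45% if threefold the growth effect, above 45% if 1.5-fold the growth effect; inactive = the rest, general growth blockers included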;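 also: wells of about 50 µL received 100 nL stock; 0% = vehicle wells and 100% = reference inhibitor wells; whole bacteria with a GFP reporter of the hypoxia response; strong numbers were not always called active; many hits fall short of the cut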
# Autofluor counter – flagged as autofluorescent in microsphere protease counterscreen; 3.1% of 360,000 active; fluorescence intensity (no concentration beside the values); compound autofluorescence counterscreen, microsphere flow cytometry; stronger effect = higher value; AID 624483;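 active = at least 3 SD above the mean of all compounds, about 16000 in these data; inconclusive = too few beads counted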;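 also: 100 nL of 1 mM stock went into each well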
# RN4220 kill – growth inhibition of S. aureus RN4220, primary screen, OD600. 0.33% of 330,000 active. AID 1259311, 2017. inhibition, % (no concentration beside the values). 16 h;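 active = z-score of -3 or lower and OD600 up to 0.18 on both plates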;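 also: plate controls were untreated cells for no effect and reference antibiotic for full effect; stock transfer was 100 nL into about 80 µL; one replicate is shown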
# Mtb hypoxia rep growth – second read-out of Mtb hypoxia rep, no call of its own (marks repeat the call); growth inhibition, %; measured here: M. tuberculosis growth (absorbance);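 0% = vehicle and 100% = reference antibiotic; read after six days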
# * = called active by the depositor; ? = inconclusive; / = no result given; & = joins results of further samples.
SMILES,BJeLR lethal,ugtP null kill,PrP 5UTR inh,Mtb hypoxia rep,Mtb hypoxia rep growth,Autofluor counter,RN4220 kill
Nc1ccc(-n2nncc2-c2ccc(Cl)cc2)cc1,1,4,-20,5,7,11453,2.7
O=C(CNC(=O)c1ccc(Br)o1)NCCc1ccc(F)cc1,-9,5,-21,7,-8,5629,0.7
Cn1cccc1CC(=O)NNC(=O)Nc1ccc(F)cc1,1,-2,-20,3,-5,2210,-0.8
CCC(=O)N(c1nnc(SCC(=O)Nc2ccc(N3CCOCC3)cc2)s1)C1CC1,/,2,12,1,2,3844,0.9
CCC(C)(C)n1nnnc1C(c1ccccc1)N1CCN(Cc2ccccc2)CC1 (stereo not drawn),-2,2,-23,10,-1,4490,4.3
COc1ccccc1C(=O)N(Cc1ccco1)C1CCS(=O)(=O)C1 (stereo not drawn),14,-4,-19,15,8,2619,-5.4
Cc1cccc(C(=O)N2CCN(C(=O)c3cccc(C)c3)C(C)C2)c1 (stereo not drawn),/,2,0,16,3,4148,0.6
COc1ccc(S(=O)(=O)N2CCC(C(=O)Nc3c(F)cccc3F)CC2)cc1,5,-5,-24,-1,6,6048,-5.6
CCOC(=O)C1C2COc3ccc(Br)cc3C2N2C(=O)c3ccc(C)cc3NC(=O)[C@@]12C (stereo partly drawn),/,-27,/,-4,11,/,-5.6
Cc1ccc(NC(=O)ON=Cc2ccc(F)cc2)cc1,/,11,/,4,-5,/,4.7

# Brought forward from above: 4 compounds, then new ones.
SMILES,BJeLR lethal,ugtP null kill,PrP 5UTR inh,Mtb hypoxia rep,Mtb hypoxia rep growth,Autofluor counter,RN4220 kill
Cc1cccc(C(=O)N2CCN(C(=O)c3cccc(C)c3)C(C)C2)c1 (stereo not drawn),/,2,0,16,3,4148,0.6
COc1ccc(S(=O)(=O)N2CCC(C(=O)Nc3c(F)cccc3F)CC2)cc1,5,-5,-24,-1,6,6048,-5.6
CCOC(=O)C1C2COc3ccc(Br)cc3C2N2C(=O)c3ccc(C)cc3NC(=O)[C@@]12C (stereo partly drawn),/,-27,/,-4,11,/,-5.6
Cc1ccc(NC(=O)ON=Cc2ccc(F)cc2)cc1,/,11,/,4,-5,/,4.7
Cc1cc(=O)[nH]c(SCc2cc(=O)n3nc(C)sc3n2)n1,-5,9,-6,9,3,4223,1.9
Cc1ccc(Cn2c(=N)c(C#N)cc3c(=O)n4cccc(C)c4nc32)cc1,-5,1,/,10,-2,/,0.1
COc1ccccc1N1C(N)=NC(N)=NC1(C)C,5,-2,-18,/,/,2862&1938,-1.7
CCC(C(=O)Nc1nccs1)c1ccccc1 (stereo not drawn),4,-3,-7,8,1,4393,-2.4
Cc1nc(-c2ccccc2)sc1C(=O)/C=C/c1ccccc1,4,/,-12,/,/,5988,/
Cc1cc(Br)ccc1OCc1nnc(-c2ccccc2)o1,/,-9,/,22,21,3653,22
COc1cccc(C(=O)/C=C/Nc2cccc(O)c2)c1,3,-13,-39,-2,-4,13330,1.8
COc1ccc(NC(=S)N2CCC(NC(=O)C3CCCCC3)CC2)cc1,-14,-1,-19,-9,3,2758,4.5
COc1cccc(CCNC(=O)CC2C(=O)NCCN2Cc2ccc(Cl)c(F)c2)c1 (stereo not drawn),-4,0,-31,13,11,4912,2.2
O=C(CSc1nncn1-c1ccccc1)Nc1c(F)cccc1F,-3,0,6,-11,1,3653,-5.1
CCCCc1nnc(NC(=O)CSc2nc(=O)cc(N)n2-c2ccccc2)s1,-5,6,-23,0,9,10869,2.6
Cn1c2ccccc2c2cc(C(=O)N3CCOCC3)sc21,0,-13,-20,13,9,8630,3.0
OCCSc1nnc(Nc2ccccc2)s1,-6,-4,-22,6,5,3425,4.9
CSCC[C@H](NC(=O)OC(C)(C)C)C(=O)N1CCC(C(=O)N[C@H](C(=O)O)C(C)C)CC1,-4,7,-17,12,4,10667,1.5
Cc1cc(NC(=O)CCN2C(=O)C3C4C=CC(C4)C3C2=O)ccc1Br (stereo not drawn),-6,/,-5,/,/,3346,/
Cc1ccc(N2CCN(/N=C/c3ccccc3)CC2)cc1,-3,/,-24,/,/,4282,/
COc1ccccc1CNC(=O)/C=C/c1cc2c(cc1Br)OCO2,11,-3,-8,/,/,2650,-4.1
CC(C)(C)c1ccc(C(=O)NC(=S)NCc2cccnc2)cc1,3,-29,-6,2,7,2492,-2.0
O=C(C1=C(O)C(=O)N(CC2CCCO2)C1c1ccccc1)c1ccco1 (stereo not drawn),0,1,0,-5,-7,3619,1.7
COc1ccc(OC)c(-c2cc(C(=O)Nc3ccccc3C(N)=O)c3ccccc3n2)c1,-6,-7,/,5,-9,4837,-2.0
Cc1ccc(C)c(S(=O)(=O)Nc2ccc(C(=O)NCCc3ccccn3)cc2)c1,-3,5,4,-6,11,3866,7.2
CC(=O)O/N=C/c1c(Cl)n(C)c2ccccc12,-2,/,-25,/,/,3319,/
O=C(NCCO)c1ccc2c(c1)S(=O)(=O)c1ccccc1C2=O,5,-1,-29,-9,10,4093,6.7
O=C(COC(=O)c1cc(=O)[nH]c2ccccc12)Nc1nc(-c2ccc(F)cc2)cs1,/,6,-33,6,4,3762,9.4
COc1ccc(OC)c(S(=O)(=O)N2CCCC(N3CCN(c4ccccc4)CC3)C2)c1 (stereo not drawn),11,8,-33,0,6,5514,2.5
CCn1nnc2cc(C(=O)NCC(c3ccccc3OC)N(C)C)ccc21 (stereo not drawn),6,10,-14,3,5,3801,0.0
COC(=O)NCC(c1ccco1)N1CCN(c2ccc(F)cc2)CC1 (stereo not drawn),7,6,-19,15,-2,2393,3.3
Cc1ccc2nc(SCC(=O)N3CCCC3)[nH]c2c1,-6,-9,-65,5,9,11167,1.9
CCc1ccc(NC(=O)CSc2nc3nc(C)cc(C)n3n2)cc1,-4,1,10,2,-3,4515,3.5
COc1cccc(OCCCCCN2CCOCC2)c1,1,11,-10,4,4,11158,4.3
CC(=NNC(=O)C(=O)Nc1ccc(C)cc1)c1ccncc1,/,1,/,7,2,/,4.4
Cc1ccc(C(=O)NNC(=O)c2ccc3c(c2)OCCO3)cc1,/,2,-79,6,2,3874,6.3
CCOC(=O)/C=C1/SCC(=O)N1CC(=O)Nc1ccc2c(c1)CCC2,/,5,3,-6,2,3907,4.3
CN1CCN(CCCC(=O)c2ccc(C3CCCC3)cc2)CC1,-4,85*,-34,14,7,4174,-3.2
COc1cc(NS(=O)(=O)c2ccc(NC(=O)Cc3ccccc3)cc2)nc(OC)n1,-4,4,-11,9,-1,6275,4.0
CCOC(=O)CC1=CSC2=NS(=O)(=O)CCN12,-5,4,-21,0,-2,3161,13
CCN1CCN(C(c2ccccn2)c2c(NC(=O)c3ccccc3)sc(C)c2C)CC1 (stereo not drawn),-12,2,-15,-70,-5,4446,0.0
c1ccc2c(Nc3ccc(N4CCOCC4)cc3)nc(N3CCOCC3)nc2c1,-2,/,-7,/,/,3442,/
Cc1ccc(C)c(C(=O)COC(=O)c2n[nH]c3ccccc23)c1,/,-9,-85,-4,6,3583,2.7
CC(C)CC(=O)N1CC(C)N(C(=O)CC(C)C)CC1C (stereo not drawn),3,-3,/,14,7,/,1.3
O=S(=O)(Cc1ccccc1)/C1=C(\N2CCOCC2)CCCCCC1,4,-2,-21,4,5,10442,5.9
Cc1cc(C)c2nc(NC(=O)c3cc(C)on3)sc2c1,-7,5,-12,9,4,2839,8.6
Cc1ccc(CNC(=O)c2cccnc2)cc1,4,8,/,18,5,/,1.3
O=C(CNC(=O)c1ccco1)OCC(=O)c1ccc2c(c1)CCCC2,-10,-4,-12,-2,-5,17018*,2.2
COc1ccc(CCNC(=O)c2cccnc2Cl)cc1OC,-4,2,-24,5,10,5600,5.2
Cc1c(NC(=S)NC(=O)c2ccc(Cl)cc2)c(=O)n(-c2ccccc2)n1C,-3,-2,-7,17,13,3560,1.9
COc1cccc(N2C(=O)CC(Sc3nc(C)cc(C)n3)C2=O)c1 (stereo not drawn),5,9,-7,8,3,3927,2.0
CCOc1c(/C=C(\C#N)C(N)=O)c2ccccc2n1CC,22,3,-4,8,-3,2115,4.5
CCCOc1ccc(/C=N/NC(=O)c2ccc3c(c2)OCO3)c(OCCC)c1,10,/,8,/,/,3135,/
CC(C)[C@H](NC(=O)OC(C)(C)C)C(=O)N1CCC(C(=O)N[C@@H](C)C(=O)Nc2ccc(F)cc2)CC1,10,-2,-10,7,0,3057,2.3

# Next results follow.
SMILES,BJeLR lethal,ugtP null kill,PrP 5UTR inh,Mtb hypoxia rep,Mtb hypoxia rep growth,Autofluor counter,RN4220 kill
COc1ccc(NC(=O)CCN2CCN(c3ccccc3F)CC2)c(OC)c1,-7,8,-35,6,1,3034,-1.2
O=C(Nc1cc(N2CCOCC2)ncn1)c1ccc(F)cc1,-9,10,-14,15,8,2727,5.0
COC(=O)[C@@]12CCCCN1C(c1ccc(-c3ccc(Cl)c(Cl)c3)c(OC)c1)C1C(=O)N(C)C(=O)C12 (stereo partly drawn),/,2&-12,/,17&4,7&5,/,3.6&8.1
CC(=O)c1cccc(NC(=O)N2CCCCCC2)c1,5,0,-15,10,3,?,3.0
CC12CCC(C(=O)NCc3ccc4c(c3)OCO4)(C(=O)C1=O)C2(C)C (stereo not drawn),5,3,-15,/,/,3125,-1.9
COc1ccc(/C=C2\CC/C(=C\c3ccc(OC)c(OC)c3)C2=O)cc1OC,8,16,46,6,10,6628,14
CSc1ccc(/C=C/C(=O)N2CCCN(C)CC2)cc1,-1,8,-41,18,12,3447,8.2
CN=c1sc2ccccc2n1CC(O)COCc1ccco1 (stereo not drawn),4,5,-10,4,6,3860,-0.5
O=CN/C=C/c1cc(O)ccc1O,/,-10,-7,/,/,5292,6.4
CCOc1ccccc1N1CCN(CC(=O)NC(C)c2ccccc2)CC1 (stereo not drawn),-7,6,-16,15,16,3539,1.7
Cc1ccc(C2=NN(CCC(=O)N3CCC4(CC3)OCCO4)C(=O)CC2)cc1,12,-10,-24,2,-8,?,-1.0
COC(=O)c1[nH]c2cccc(OC)c2c1NC(=O)CCN1CCC(C(N)=O)CC1,-9,-2,/,-3,-3,/,-10
O=C(Nc1c(F)cc(F)cc1Br)c1ccco1,8,7,-25,6,3,14520,3.5
O=C(/C=N\O)NCCCNCc1ccccc1,-13,/,-16,/,/,5142,/
COc1cccc(CN(C)C(=O)c2cc(S(=O)(=O)NC3CCCCC3)ccc2C)c1OC,/,7,16,-1,-6,6916,4.6
CCNC(=O)COC(=O)Cc1ccc(Cl)cc1Cl,3,-1,-16,4,4,5017,3.6
COc1ccc(CN2CCCC(CNC(=O)c3ccc(F)cc3)C2)c(C)c1C (stereo not drawn),-7,2,27,-1,8,2571,-2.1
COc1cc(OC)cc(C(=O)OCC(=O)NCc2ccc3c(c2)OCO3)c1,-5,-9,-13,0,2,2046,-8.4
COc1cccc(NC(=O)CSC(N)=O)c1,-13,13,-24,-1,5,2381,-5.2
CS(=O)(=O)Nc1nc2n(n1)C(c1ccccc1)CC(c1ccccc1)N2 (stereo not drawn),-4,1,-13,14,-3,3942,4.5
Cc1nn(C(=O)c2c(-c3ccccc3)noc2C)c(C)c1N=Nc1cc(C(F)(F)F)cc(C(F)(F)F)c1,-3,7,-2,6,8,2925,2.8
O=C1Nc2cc(C(=O)N3CCN(c4ccccn4)CC3)ccc2S/C1=C\c1ccccc1,13,-17,-11,2,-5,5077,-2.8
COc1ccc(N(CC(=O)NCCC2=CCCCC2)S(=O)(=O)c2ccccc2)c(OC)c1,5,10,-16,2,5,4678,8.6
Cc1noc(C)c1CSCC(=O)Nc1ccc(C#N)c(Cl)c1,/,-4,-6,-2,2,8244,-0.8
CCOCCn1c(SCC(=O)OCc2ccccc2)nc2c1c(=O)[nH]c(=O)n2C,4,4,-16,-6,9,6085,18
CCCCCC(=O)Nc1cccc(C2=NOC3(C2)CC(C(N)=O)N(C(=O)Cc2ccc([N+](=O)[O-])cc2)C3)c1 (stereo not drawn),/,4,/,4,13,/,3.8
CN(C)CCCN(C(=O)c1ccc2c(c1)OCCO2)c1nc2ccc(Cl)cc2s1,10,/,-18,/,/,6346,/
Cc1cccc(NC(=O)CN2C(=O)N/C(=C/c3ccc(C)o3)C2=O)c1,-1,-4,-10,5,-6,10079,6.1
